NPYLR7 agonist = activates Aedes aegypti NPYLR7 receptor | HEK293T NPYLR7/Galpha15, GCaMP6s calcium fluorescence | activation, % at 10 µM | actives 0.15% (n = 270,000); in the data active = activation above about 40%;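 also: 0% = vehicle and 100% = reference agonist at the receptor; some compounds past the cut are filed as inactive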
NPYLR7 agonist max-min = also measured in NPYLR7 agonist; calls as there; activation, %; measured here: Max-Min RFU normalised activation; some inactives read as strong as hits;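 span of the calcium signal over five minutes; 0% = vehicle and 100% = native peptide agonist; compound fluorescence can raise it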
The depositor's hits bear a star; & = joins results of further samples.

SMILES | NPYLR7 agonist | NPYLR7 agonist max-min
Cc1ccc(Cc2nnc(SCC(=O)Nc3ccccc3)[nH]c2=O)cc1 | -4 | -4
Clc1ccc(C2CC(c3ccc(Cl)cc3)n3ncnc3N2)cc1 (centres undefined) | -3 | -7
Cc1ccc(C2(CNC(=O)c3cccc(SC(F)F)c3)CCOCC2)cc1 | 0 | -1
CN(C)c1cccc2c(S(=O)(=O)Nc3ccccc3C(=O)NCc3ccc4c(c3)OCO4)cccc12 | 0 | 8
O=C(NCCn1ccc2ccccc21)C12CC3CC(CC(C3)C1)C2 | -4 | -4
CCC(c1nc2ccccc2c(=O)n1-c1cccc(C)c1)N(CCc1ccccc1)C(=O)c1cccc(F)c1 (centres undefined) | -10 | -13
Cc1cccc(=O)n1CCC(=O)N1CC[C@@](C)(O)[C@@H](Cc2ccccc2)C1 | 1 | -7
CN(CCCNC(=O)c1ccc(=O)n(Cc2ccccc2)c1)c1ccccc1 | 3 | 5
O=c1[nH][nH]c(=O)c2nccnc12 | 2 | 7
O=C(CSc1nnc(C2COc3ccccc3O2)o1)N1CCc2ccccc21 (centres undefined) | 13 | 10
Cn1nc(C(=O)Nc2ncc(Cc3ccccc3Cl)s2)ccc1=O | 10 | 4
O=C(CN1CCc2c([nH]c3ccccc23)C1c1ccc([N+](=O)[O-])c(Cl)c1)Nc1ccccc1 (centres undefined) | 4 | 8
S=C(NCC1CCCCC1)Nc1ccccc1Cl | 13 | 11
COc1ccc(-n2nnnc2CNC(=O)CC(c2ccccc2)c2ccccc2)cc1 | 7 | 4
Cc1occc1-c1nnc(SCCCn2c(=O)c3c(ncn3C)n(C)c2=O)o1 | 6 | 0

Overlap with the part before: 6 compounds; new compounds follow.
SMILES | NPYLR7 agonist | NPYLR7 agonist max-min
O=C(CSc1nnc(C2COc3ccccc3O2)o1)N1CCc2ccccc21 (centres undefined) | 13 | 10
Cn1nc(C(=O)Nc2ncc(Cc3ccccc3Cl)s2)ccc1=O | 10 | 4
O=C(CN1CCc2c([nH]c3ccccc23)C1c1ccc([N+](=O)[O-])c(Cl)c1)Nc1ccccc1 (centres undefined) | 4 | 8
S=C(NCC1CCCCC1)Nc1ccccc1Cl | 13 | 11
COc1ccc(-n2nnnc2CNC(=O)CC(c2ccccc2)c2ccccc2)cc1 | 7 | 4
Cc1occc1-c1nnc(SCCCn2c(=O)c3c(ncn3C)n(C)c2=O)o1 | 6 | 0
Cc1ccccc1N=Cc1c(C(F)(F)F)[nH]n(-c2nc3ccccc3s2)c1=O | -11 | -19
COc1ccc(CNC(=O)Cn2nc3c(c2NC(=O)c2cc4ccccc4o2)CSC3)cc1 | -2 | 1
COc1ccc(C(NC(=O)C2CCN(CCOc3ccc(F)cc3)CC2)c2ccccc2C)cn1 (centres undefined) | 3 | -1
CCn1ccnc1SCc1cccc(OCC(F)(F)F)c1 | 1 | 0
COc1cc(-c2[nH]ncc2CN(C)Cc2sccc2C)cc(OC)c1OC | 8 | 7
C=CCCC(=O)O[C@H]1CC(C)=C2C(=O)CC(=C)C2[C@H]2OC(=O)[C@@H](C)C21 (some centres undefined) | 0 | 1
CC(C)(C)c1cc(CN2CCn3cncc3C2)[nH]n1 | 5 | 3
O=C(CSc1ncnc2c1nnn2Cc1ccccc1)N1CCCC1 | 0 | 35
CN(C)CCC[C@H]1c2ccccc2Sc2ccccc2[C@@H]1C#N | -1 | -4
CC1=C(n2cnc([N+](=O)[O-])n2)C(c2ccccc2)C(C#N)C(=N)O1 (centres undefined) | 2 | 2
CC(OC(=O)c1ccc(N2CCCC(C(N)=O)C2)cc1)c1cnc2ccccc2c1 (centres undefined) | 0 | 7
CCCCN(C=O)c1c(CC)nc2c(OCC3CCCCC3)cccn12 | -1 | 6
CC(C)C(=O)N(Cc1ccc(F)cc1)Cc1ccccc1OS(C)(=O)=O | -7 | -5
Cn1cc(NC(=O)CN2CCC(N3CCCC(C(=O)NC4CC4)C3)CC2)cn1 (centres undefined) | 5 | 3
O=C(Nc1ccc(Cl)cc1)C1CC(=O)N(CCO)C(=Nc2ccccc2)S1 (centres undefined) | -2 | -3

Two compounds picked at random from the list so far, as already listed:
SMILES | NPYLR7 agonist | NPYLR7 agonist max-min
CN(C)CCC[C@H]1c2ccccc2Sc2ccccc2[C@@H]1C#N | -1 | -4
COc1ccc(C(NC(=O)C2CCN(CCOc3ccc(F)cc3)CC2)c2ccccc2C)cn1 (centres undefined) | 3 | -1

Continuation:
SMILES | NPYLR7 agonist | NPYLR7 agonist max-min
CC(C)CN(C(=O)C1CCCC1)C1CCS(=O)(=O)C1 (centres undefined) | 0 | 22
CCC(C(=O)NC1CCCC1)n1nc(C)n2c(cc3sccc32)c1=O (centres undefined) | 3 | 3
Cc1cccc(N2CCN(S(=O)(=O)CCNC(=O)c3cnccn3)CC2)c1 | 10 | 18
CC1CN(Cc2cccc(CN)c2)CC(C)O1 (centres undefined) | 26 | 14
CCN(CC(O)COC12CC3CC(CC(C3)C1)C2)C1CCCCC1 (centres undefined) | 4 | 2
CC(C)NC(=O)NNC(=O)c1cccn(Cc2cccc(F)c2)c1=O | 2 | -1
COc1ccc(C(N)=S)cc1 | 1 | 8
COC(=O)c1c(C)c[nH]c1C | -2 | -2
CSc1nc(=O)cc(N)n1-c1ccc(C)c(C)c1 | 13 | 11
N#Cc1ncn(Cc2nc3ccccc3n2C(F)F)n1 | 4 | 1
COCCN(Cc1ccc(C)cc1)Cc1nn(C)cc1Cl | 22 | 7
Cc1nccn1CCN(C)c1cc(NC2CC2)nc(N)n1 | 6 | 4
CC(C)(C)c1ccccc1SCc1csc(Cc2ccc3c(c2)OCO3)n1 | 4 | 0
C/C(=C/C(=O)N1CCCCC1C(=O)Nc1ccc(Cl)cc1Cl)C1CC1 (centres undefined) | 6 | 3
Cc1ccc(OCCSc2nc3ccccc3n2CC(=O)O)cc1C | -20 | -19
COc1cccc(F)c1-c1cc(C)cnc1N | 8 | 6
CCCN(C(=O)c1ccc(=O)n(C)c1)c1ccc(Cl)cc1 | 9 | 7
COc1ccc(C(CC(=O)NC(C)c2ccccc2)c2c[nH]c3ccccc23)cc1OC (centres undefined) | 2 | 10
CCOC(=O)c1ccc2c(c1)nc(SCc1c(F)cccc1F)n2Cc1ccco1 | 4 | -1
N#Cc1c(NC=CC(=O)C(F)(F)F)sc2c1CCCC2 | 11 | 5
COc1ccccc1CCNC(=O)Cn1nc(C(=O)N2CCN(C)CC2)cc1C | -8 | -11
CN(Cc1ccc2c(c1)OCO2)C(=O)c1c[nH]cc1-c1ccc(Cl)s1 | -2 | -5
CC(Cc1nc2ccccc2s1)(C(=O)N1CCOCC1)c1ccccc1 (centres undefined) | -4 | -6
O=C(c1ccc([N+](=O)[O-])cc1)N1CCCN(c2nc(Cc3ccc(Cl)cc3)ns2)CC1 | -3 | 13
Cc1c(C(=O)NCc2cccc(Cl)c2)sc(=O)n1Cc1ccncc1 | 9 | 6
CN(Cc1cccc(O)c1)c1nccc(CCC(F)(F)F)n1 | -8 | -12
COc1cccc(C2=NN(C(=O)CN3CCc4ccccc4C3)C(c3ccccc3Cl)C2)c1 (centres undefined) | 18 | 12
O=C1NCC2(CCCN(c3nnnn3-c3ccccc3)CC2)O1 (centres undefined) | -1 | -3
CCOc1ncccc1C(=O)N1CCC2(CC1)C(=O)N(C)c1ccccc12 | 0 | -1
Cc1sc2ncn(CC(=O)C34CC5CC(CC(C5)C3)C4)c(=O)c2c1C | 0 | 0
COc1cccc(C(=O)NC(=NCCN2CCCC2)OCC(C)C)c1 | 15 | 27
Cc1ccc(N2C(=O)N(Cc3ccccc3C#N)C(=O)C2C)cc1 (centres undefined) | 4 | -2
CCc1ccc(C(=O)N2CCc3ccccc3C2c2ccc(F)cc2)cc1 (centres undefined) | 20 | 10
c1cnc2sc(N3CCN(C4CCCCC4)CC3)nc2c1 | 1 | -2
Cc1nn(C)c(C)c1CN(C)C(=O)C1(C)CC1(Br)Br (centres undefined) | 4 | 3
CC(C)N1CCNC(=O)C1CC(=O)NC1(CN2CCOCC2)CCCC1 (centres undefined) | 29 | 19
Cc1nn(-c2ccccc2)c(Cl)c1C=C1C(=O)c2ccccc2C1=O | 4 | 2
O=C(C1COc2ccccc2O1)N(Cc1ccccn1)c1nc2c(F)cc(F)cc2s1 (centres undefined) | 3 | -4
Cc1cc(OCC(=O)N2CCCCC2CCCc2ccccc2)no1 (centres undefined) | -4 | -4
Cc1occc1C(=O)NCc1ccccc1COC(C)C | -1 | -2
O=c1oc2ccccc2c2c1nc(C(F)(F)F)n2-c1ccccc1 | 9 | 7
CNc1cncc(-c2ccccc2)n1 | 1 | 1
O=C1C(O)=C(O)C(=O)C(O)=C1O | -3&-4 | -3&-8
CN1CCCC(CNC(=O)N2CCSCC2)C1c1cccs1 (centres undefined) | 7 | 0
O=C(NCCC1CCCC1)c1ccc2c(c1)OCCCO2 | -1 | -7
CCC(=O)N[C@@H]1c2ccccc2C2(CCN(Cc3cnc(-c4ccccc4C)nc3)CC2)[C@H]1OC | 17 | 9
CC(C)Cc1cc(CNC(=O)c2cccc3c2OCC3)no1 | 4 | 4
Nc1nnc(SCC(=O)Nc2nnc(-c3ccc(Br)cc3)s2)s1 | 6 | 10
Cn1cc(C(=O)N2CCN(C(=O)Cc3cccs3)CC2)c2nn(-c3ccccc3)c(=O)c-2c1 | -1 | -1
O=C(O)C=CC(=O)NCCC1=CCCCC1 | 0 | -3
O=C(CCc1cc2c(n1-c1ccc3c(c1)OCO3)-c1ccccc1CC2)NCc1cccs1 | 1 | -2
COc1cccc(-c2nc3n(n2)C(c2cccs2)C(C(=O)Nc2ccccc2OC)=C(C)N3)c1 (centres undefined) | 2 | 2
COc1cc(C(C2Sc3nc(C)nn3C2=O)N2CCC(C)CC2)cc(OC)c1OC (centres undefined) | -4 | -2
O=C(Nn1c(-c2ccco2)n[nH]c1=S)C1CC1c1ccccc1Cl (centres undefined) | 5 | 13
CN(C(=O)c1cn(C/C=C/c2ccccc2)nn1)C1CCCc2ccccc21 (centres undefined) | -1 | -3
CCc1nc(NC(=O)Cc2cc(C)on2)sc1C | 9 | 3
O=C(CCC1CCN(C(=O)C2=CCCC2)CC1)N1CCN(c2ccccc2)CC1 | 4 | 1
CC(=O)Nc1cc(-c2ccccc2)nn1-c1ccc(C(=O)NCc2cccc(F)c2)cc1 | -13 | -16
CCC1CN(CCN2CCCC2=O)CCC(=O)N1Cc1ccccc1 (centres undefined) | 0 | 3
c1ccc2c(-c3n[nH]c(C4CC4)n3)cc(-c3ccncc3)nc2c1 | 3 | 19

Exported as tab-separated lines: 4 of the compounds above.
Molecule	NPYLR7 agonist	NPYLR7 agonist max-min
O=C(Nn1c(-c2ccco2)n[nH]c1=S)C1CC1c1ccccc1Cl (centres undefined)	5	13
CN(C(=O)c1cn(C/C=C/c2ccccc2)nn1)C1CCCc2ccccc21 (centres undefined)	-1	-3
CCc1nc(NC(=O)Cc2cc(C)on2)sc1C	9	3
O=C(CCC1CCN(C(=O)C2=CCCC2)CC1)N1CCN(c2ccccc2)CC1	4	1

Additional records follow:
SMILES | NPYLR7 agonist | NPYLR7 agonist max-min
CCc1ccc2c(c1)NC(=O)C2(C)Cc1ccc2c(c1)OCO2 (centres undefined) | -2 | 6
CNC(=O)[C@@H]1[C@@H](OC(N)=O)C(=O)N(C)C12CCN(C(=O)c1cc(C)oc1C)CC2 | 9 | 11
CCCCOc1cc(C=C2N=C(c3cc(OC)c(OC)c(OC)c3)OC2=O)ccc1OC | 0 | 8
COc1ccc(Nc2nc(N3CCN(c4ccccc4F)CC3)nc3[nH]ncc23)cc1 | 2 | -1
CCNC(=O)c1cc(-c2ccccc2)c(N2CCOCC2)s1 | 4 | 2
CC(C)(C)C(=O)Nc1ccccc1COC(=O)C(C)(C)C | 2 | 5
CC1=NN(CC(=O)N(C)CCC(C)(C)O)CC1 | 19 | 14
Cc1cc(CNC(=O)CC2CN(C)CCN2C)c2[nH]c(-c3ccccc3)c(C)c2c1 (centres undefined) | 7 | 0
NC(=O)C1CCN(C(=O)C2CCN(S(=O)(=O)N3CCOCC3)CC2)CC1 | 9 | 6
CCN1CCN(C(=O)c2cccc(NC(=O)C3CCCC3)c2)C(C)C1=O (centres undefined) | 27 | 12
CC(C)NC(=O)[C@@H]1C[C@H](N)CN1C(=O)[C@H]1CCCO1 | 20 | 13
CCOC(=O)CSc1nnc(Cn2c(=O)sc3ccccc32)n1C | 10 | 8
C=CCN1C(=O)/C(=C/c2ccsc2)SC1=S | 1 | 8
CCOC(=NC(=O)c1ccc(C)cc1)N(CC)CC | 13 | 27
COC(=O)C1CCCCN1CC(=O)NC1CCCCC1 (centres undefined) | 7 | 7
COCCn1c(SC(C)C(=O)NC(N)=O)nc2ccccc21 (centres undefined) | -2 | -2
COc1ccc(C(=O)NC2CCC(NC(=O)[C@H]3CCCN3C(=O)c3cccc(OC)c3)CC2)cc1 (some centres undefined) | 4 | 12
COc1ccc2nc(N3CCCC3C(=O)NCc3ccc(Cl)s3)nc(C)c2c1 (centres undefined) | 25 | 4
CCCSc1ncccc1C(=O)NCCC1=CCCCC1 | -7 | -11
O=C(c1ccc(-n2ccnc2)cc1)N1CC(c2ccccn2)C1 | 21 | 11

Record cards (already shown):
Results for Cc1nn(-c2ccccc2)c(Cl)c1C=C1C(=O)c2ccccc2C1=O → NPYLR7 agonist: 4; NPYLR7 agonist max-min: 2
Results for CC1CN(Cc2cccc(CN)c2)CC(C)O1 (centres undefined) → NPYLR7 agonist: 26; NPYLR7 agonist max-min: 14
Results for CC(=O)Nc1cc(-c2ccccc2)nn1-c1ccc(C(=O)NCc2cccc(F)c2)cc1 → NPYLR7 agonist: -13; NPYLR7 agonist max-min: -16

Screening data from PubChem BioAssay.

An excerpt; rates above refer to the full screens.
